# Hsc70 ATP site: small molecules displacing fluorescent ligand from Hsc70 – biochemical, fluorescence polarization, primary screen (AID 568); Hsc70 fluorescence polarization, probe displacement; higher % means a stronger effect; strong numbers were not always called active; one-dose displacement, % at 20 µM; IC50 in µM for titrated hits; 83,000 tested, under 10 active;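 active means displacement above 50% without optical interference and an IC50 on retest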;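 further: ATPase domain with a fluorescein-tagged ATP probe; 0% = vehicle and 100% = excess ADP; read after one hour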
# WNV NS2B-NS3 inh: blocks West Nile virus NS2B-NS3 protease activity; WNV NS2B-NS3 protease, fluorogenic substrate Ex360/Em465; active compounds read low; actives 0.18% (n = 65,000); z-score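 (tested at a level between 10 and 100 µM)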;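 active means z-score at -3 or under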;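 further: score is relative to mean and spread of the compound wells of a plate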
# Target sequence (P06935 1371-1501 limits assumed): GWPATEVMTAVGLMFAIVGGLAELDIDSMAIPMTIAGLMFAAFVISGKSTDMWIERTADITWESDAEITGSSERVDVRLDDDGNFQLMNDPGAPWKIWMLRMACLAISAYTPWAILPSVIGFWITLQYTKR
# Target sequence (P06935 1502-1679 limits assumed): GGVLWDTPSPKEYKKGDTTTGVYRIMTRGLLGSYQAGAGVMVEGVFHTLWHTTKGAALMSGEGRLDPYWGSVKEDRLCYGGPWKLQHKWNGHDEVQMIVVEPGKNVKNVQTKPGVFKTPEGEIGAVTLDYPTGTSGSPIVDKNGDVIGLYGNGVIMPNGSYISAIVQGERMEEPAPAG
# MT1-MMP promoter: MT1-MMP gene expression reporter suppression – cell-based, luciferase reporter, luminescence (AID 618). MT1-MMP promoter luciferase reporter cells, luminescence. calls from a first round at 10 µM; hits with a dose series show EC50 in µM. actives 0.62% (n = 87,000);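 active means over half of the reporter light lost at 10 µM or EC50 under 50 µM; inactive means the rest and hits that failed the dose series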;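 further: actives suppress MT1-MMP promoter-driven transcription so potencies describe inhibitors; HT1080 fibrosarcoma cells; overnight exposure; toxic or luciferase-blocking compounds were not removed from the actives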
# Starred values were filed as active, the others as inactive; i = inactive; · = not tested or not shown; + = active, no number.
SMILES,Hsc70 ATP site,WNV NS2B-NS3 inh,MT1-MMP promoter
CC(=O)Nc1ccc(N2C(=O)CCC2=O)cc1C,-1.4%,·,i
O=C(Nc1ccc2c(c1)OCO2)c1cccc2c1C(=O)N(Cc1cccnc1)C2,0.8%,-0.46,i
O=C(Nc1ccccc1)c1ccncc1,1.4%,·,i
COc1ccc(CN2CCC(CNC(=O)NC3CCCCC3)CC2)cc1,-2.7%,0.97,i
Cc1ccc(S(=O)(=O)c2ccc(Cl)cc2)cc1S(=O)(=O)N1CCOCC1,4.3%,2,i
Cc1ncoc1C(=O)Nc1ccccc1-c1ccccc1,0.1%,1.4,i
O=C1c2cccc3cccc(c23)C(=O)N1c1ccncc1,-2.6%,·,i
O=C(NCc1ccccc1)c1cc(S(=O)(=O)N2CCOCC2)ccc1F,-44%,-0.5,i
CC(=O)SCCC(=O)N1C(C)CCCC1C(=O)O (stereo unspecified),-3.3%,-0.13,i
CC1CCCC(C)N1S(=O)(=O)c1ccc(NC(=O)CNCC2CCCO2)cc1 (stereo unspecified),2.3%,-0.33,i
CCN(CC)S(=O)(=O)c1cc(Br)ccc1OC,5.1%,0.45,i
Cn1c(CCN2CCN(c3ccccc3)CC2)nc2cc(NC(=O)c3ccco3)ccc21,0.4%,-0.68,i
CCN(CC(N)=O)S(=O)(=O)c1ccc(Br)cc1,1.7%,1.7,i
CCCN=CC1=C(O)CC(c2ccccc2)CC1=O (stereo unspecified),-2.2%,·,i
CCCCCn1c(CN2CCN(c3cc(Cl)ccc3C)CC2)nc2c1c(=O)[nH]c(=O)n2C,93%,-0.81,i
CN1CCN(c2ccccc2NC(=O)c2cccc(OCc3ccccc3)c2)CC1,3.6%,1.2,i
Cc1cc(NS(=O)(=O)c2ccc(NC(=O)Nc3ccc4c(c3)OCO4)cc2)no1,-0.1%,-0.48,i
CC(=O)c1ccc(C(C)(C)c2ccc(C(C)=O)s2)s1,-5.2%,1.2,i
Cc1cccc(N(C)C(=S)Oc2ccc3ccccc3c2)c1,1.0%,-2.5,i
CN1C(=O)C(O)(CC(=O)c2ccccn2)c2cc(Br)ccc21 (stereo unspecified),7.6%,0.79,i
CC1(C)Cc2c(sc3[nH]c(=S)n(Cc4ccco4)c(=O)c23)CO1,1.0%,0.29,i
CCCNC(=O)NC(=O)CSc1nnc(C)n1N,-0.4%,·,i
C=C(C)CSc1nnc2[nH]c(=O)cc(N)n12,-1.2%,-1.2,i
O=C(COC(=O)c1ccccc1NC(=O)c1ccco1)NCCC1=CCCCC1,-7.0%,-1.2,i
Cc1ccc(NC(=O)CSc2nnc(CSc3nc(C)cc(C)n3)n2Cc2ccco2)c(C)c1,7.7%,0.56,i
COc1cc2cc(/C=C/C(=O)c3ccco3)c(Cl)nc2cc1OC,-7.1%,·,i
CCS(=O)(=O)n1nc(-c2ccccc2)nc1N,2.3%,1.2,i
CC1CCCCC1NC(=O)C(Cc1ccccc1)NS(=O)(=O)c1cccs1 (stereo unspecified),5.4%,·,i
COc1ccc(NC(=O)c2cc(Cl)ccc2NC(=O)c2ccco2)c(OC)c1,-1.3%,0.14,i
COC(=O)c1sccc1NC(=O)C1C2C=CC(C2)C1C(=O)O (stereo unspecified),-5.1%,·,i
CCOC(=O)C1=C(c2ccccc2)NC(SCC(=O)Nc2ccc(C)cc2)=C(C#N)C1c1ccco1 (stereo unspecified),4.1%,-0.09,i
Cc1cccc(-n2ncc3c(NCCCn4ccnc4)ncnc32)c1,2.6%,-0.51,i
O=S(=O)(NC1=NCCC1)c1cccs1,-1.9%,0.17,i
Clc1ccc(N=c2ssnc2Cl)cc1,0.8%,·,i
O=C(COC(=O)Cc1cccs1)Nc1ccc(F)c(F)c1F,-1.1%,·,i
COc1ccccc1N1CCN(c2ncnc3c2oc2ccccc23)CC1,-0.2%,1.4,i
COc1ccc(N2C(=O)CCC(C(C)=O)=C2C)cc1,7.6%,-0.8,i
Cc1ccc(NC2c3ncccc3C(=O)N2C2CCCCC2)cc1C (stereo unspecified),4.2%,-0.32,i
Nc1ccc(Oc2ccc([N+](=O)[O-])cc2[N+](=O)[O-])cc1,-3.1%,·,i
CCOC(=O)c1csc(NC(=O)c2cc(OC)c(OC)c(OC)c2)n1,0.4%,-1.4,i
O=c1cc(O)nc(SCc2ccccc2)[nH]1,3.1%,-0.36,i
COCCNC(=O)CSc1nc(-c2ccc(OC)c(OC)c2)cc(C(F)(F)F)n1,-1.5%,-0.39,i
COC(=O)c1ccc2c(=O)n(CCCN3CCCC3=O)c(=S)[nH]c2c1,9.1%,1.2,i
CCOC(=O)CSCC(=O)Nc1ccc(S(=O)(=O)N2CCCCC2)cc1,-3.3%,·,i
COc1ccc(-n2ccsc2=S)cc1,-7.1%,-1.6,i
O=C(Nc1ccccc1C(=O)O)c1ccc2ccccc2n1,2.4%,-1.3,i
COc1cc(S(=O)(=O)N(Cc2cccnc2)Cc2ccco2)ccc1-n1cnnn1,5.3%,0.69,i
O=Cc1ccc2oc3nc4n(c(=O)c3c(=O)c2c1)CCCS4,-1.2%,·,i
CC1=C(C#N)C(C(F)(F)F)(C(F)(F)F)N=C(c2ccco2)N1,0.5%,0.48,i
CCCCC(SCC(=O)Nc1ccccc1)C(=O)O (stereo unspecified),3.8%,-0.05,i
N#C/C(C(=O)N1CCCCC1)=C1\Nc2ccccc2S1,3.2%,-0.24,i
COc1ccccc1-n1c(CNC(=O)c2ccco2)nnc1SCC(=O)Nc1ccc(F)cc1,-3.3%,-1,i
Clc1ccccc1-c1nc(-c2ccccc2)n[nH]1,0.3%,2,i
CCNC(=O)CC1C(=O)N(CC)C(=S)N1NC(=O)c1ccc(Cl)cc1 (stereo unspecified),5.5%,·,i
CCN(CCCNC(=O)CCCCn1c(=O)[nH]c2ccccc2c1=O)c1ccccc1,-6.4%,-0.42,i
COc1ccccc1OCCOc1ccccc1/C=N/n1cnnc1,-1.4%,-0.38,i
O=C(Nc1nnc(-c2ccc3c(c2)CCCC3)o1)C1CCCCC1,2.5%,0.44,i
CC1CCN(c2ccc(NC(=S)NC(=O)c3ccc(-c4cccc([N+](=O)[O-])c4)o3)cc2)CC1,1.3%,·,i
Cc1nnc(Oc2ccccc2)c2ccccc12,-1.6%,-0.52,i
c1ccc(Cn2nnnc2C(c2ccncc2)N2CCOCC2)cc1 (stereo unspecified),1.0%,-1.3,i

# Not a retest: entries from further up.
SMILES,Hsc70 ATP site,WNV NS2B-NS3 inh,MT1-MMP promoter
O=C(Nc1nnc(-c2ccc3c(c2)CCCC3)o1)C1CCCCC1,2.5%,0.44,i
CC1CCN(c2ccc(NC(=S)NC(=O)c3ccc(-c4cccc([N+](=O)[O-])c4)o3)cc2)CC1,1.3%,·,i
Cc1nnc(Oc2ccccc2)c2ccccc12,-1.6%,-0.52,i
c1ccc(Cn2nnnc2C(c2ccncc2)N2CCOCC2)cc1 (stereo unspecified),1.0%,-1.3,i

# The listing continues:
SMILES,Hsc70 ATP site,WNV NS2B-NS3 inh,MT1-MMP promoter
Cc1cccc(N2CCN(C(=O)Cn3nc(Cc4ccncc4)c4ccccc4c3=O)CC2)c1C,-1.0%,-0.08,i
O=c1cc2c(nn1Cc1ccccc1Cl)-c1ccccc1CC2,1.6%,·,i
O=C(O)CC(NC(=O)OCc1ccccc1)c1ccccc1 (stereo unspecified),0.1%,1.6,i
O=C(Cc1ccccc1)N(c1ccc(F)cc1)C1C=CS(=O)(=O)C1 (stereo unspecified),-0.3%,-1.1,i
COC(=O)c1ccc2c(c1)C(C)(C)C(/C=C/c1ccc(OC)c(OC)c1OC)=[N+]2C,-12%,·,+
CCc1ccc(OCc2nnc(SCC(=O)N3CCN(c4ccccc4)CC3)o2)cc1,6.1%,·,i
COC(=O)c1sccc1NC(=O)c1ccc(OC)c(OC)c1,-1.3%,·,i
O=C(CN(Cc1ccccc1)C(=O)c1ccc2c(c1)OCCO2)NCc1ccc2c(c1)OCO2,-8.1%,-0.61,i
CCC1Oc2ccccc2N(CC(=O)NCCCN2CCC(C)CC2)C1=O (stereo unspecified),-7.4%,-1.5,i
O=C(Nc1cccc(-c2cnc3ccccc3n2)c1)c1ccco1,-1.6%,0.36,i
COCc1nnc(NS(=O)(=O)c2ccccc2)s1,-1.8%,-0.8,i
COc1ccccc1C(=O)Nn1c(C2CCC2)nc2ccccc2c1=O,3.7%,1.1,i
CC(C[N+](C)(C)C)OC(N)=O (stereo unspecified),8.7%,-1.9,i
O=C(CCCCCn1c(=O)[nH]c2ccccc2c1=O)N1CCN(Cc2ccc3c(c2)OCO3)CC1,-1.1%,1.4,i
CCOC(=O)N1CCC(NC(=O)CCC(=O)N2CC(C)Oc3ccccc32)CC1 (stereo unspecified),3.6%,-0.17,i

# A second format for some results above.
molecule	Hsc70 ATP site	WNV NS2B-NS3 inh	MT1-MMP promoter
CCc1ccc(OCc2nnc(SCC(=O)N3CCN(c4ccccc4)CC3)o2)cc1	6.1%	·	i
COC(=O)c1sccc1NC(=O)c1ccc(OC)c(OC)c1	-1.3%	·	i
O=C(CN(Cc1ccccc1)C(=O)c1ccc2c(c1)OCCO2)NCc1ccc2c(c1)OCO2	-8.1%	-0.61	i
CCC1Oc2ccccc2N(CC(=O)NCCCN2CCC(C)CC2)C1=O (stereo unspecified)	-7.4%	-1.5	i
O=C(Nc1cccc(-c2cnc3ccccc3n2)c1)c1ccco1	-1.6%	0.36	i
COCc1nnc(NS(=O)(=O)c2ccccc2)s1	-1.8%	-0.8	i
COc1ccccc1C(=O)Nn1c(C2CCC2)nc2ccccc2c1=O	3.7%	1.1	i

# The list goes on:
SMILES,Hsc70 ATP site,WNV NS2B-NS3 inh,MT1-MMP promoter
O=C(O)c1ccccc1S,-5.7%,0.13,i
CCCCCCNC(=O)CC(c1ccccc1)c1cc(Br)ccc1O (stereo unspecified),0.3%,·,i
O=C(Nc1ccc2c(c1)OCO2)OCc1ccccc1,-5.3%,-0.12,i
Cc1cc2ncn(S(=O)(=O)c3ccc(S(=O)(=O)N4CCOCC4)cc3)c2cc1C,4.1%,0.55,i
C=C(C)COc1ccc(-c2[nH]ncc2Oc2ccccc2OCC)c(O)c1,-0.1%,0.3,i
COCCCn1c(CCC(=O)O)ccc1-c1cccs1,-5.4%,0.25,i
CCOc1cc(C(=O)NCc2ccncc2)cc(OCC)c1OCC,-1.1%,1.3,i
O=C(c1ccccc1CCc1ccccc1)N1CCN(c2ccccn2)CC1,3.4%,-0.29,i
O=C(Nc1ccccc1)C1CCCN(S(=O)(=O)c2ccc(-n3cnnn3)cc2)C1 (stereo unspecified),7.0%,·,i
O=C(CSc1c2c(nc3ccc(Cl)cc13)CCCC2)NCc1ccco1,-3.7%,·,i
CCN(CC(=O)Nc1ccccc1C(=O)OC)S(=O)(=O)c1ccccc1,2.4%,-0.79,i
COc1ccc(-c2nc(-c3cccs3)c(-c3cccs3)[nH]2)cc1OC,-2.3%,·,i
O=S(=O)(NCc1cccnc1)c1ccc(Cl)c(Cl)c1Cl,-1.1%,0.49,i
O=C(NC1CCCc2ccccc21)c1ccc(=O)[nH]c1 (stereo unspecified),-0.5%,·,i
C=C(c1ccc(OC)cc1)c1ccc(OC)cc1,1.6%,·,i
CCC(=O)NCCc1cc2ccc(C)cc2[nH]c1=O,-2.9%,-0.57,i
Cc1ccc(S(=O)(=O)Cc2ccc(C(=O)NCc3ccc4c(c3)OCO4)o2)cc1,-3.9%,-0.15,i
Cc1ccc(-n2ncc3c2ncn2c(C)nnc32)cc1C,2.4%,0.4,i
CC1=C(C(=O)N(C)Cc2ccccc2)C2(CCC(C)CC2)OC1=O (stereo unspecified),0.1%,0.49,i
CC(=O)Nc1ccc(S(=O)(=O)N2CCN(C(=O)Cc3ccccc3)CC2)cc1,2.2%,-0.57,i
CCCSc1oc(-c2ccco2)nc1S(=O)(=O)c1ccccc1,2.4%,-0.78,i
CC(=O)c1cnc(Nc2nc(C)c3ccccc3n2)nc1C,-3.2%,-1.1,i
O=C1CN(c2ccccc2Cl)C(=O)CN1c1ccccc1Cl,5.1%,-0.16,i
O=C(Nc1ccccn1)N1CCOCC1,3.0%,0.24,i
N#Cc1ccc(CSc2nnc(NC(=O)CN3C(=O)C4CC=CCC4C3=O)s2)cc1 (stereo unspecified),-2.7%,0.05,i
COc1ccc(NC(C)=O)cc1NC(=O)CN1CCN(C2c3ccccc3-c3ccccc32)CC1,0.1%,0.61,i
COc1ccc(OC)c(C(=O)CSc2nnc(-c3cccs3)o2)c1,-15%,0.51,i
Cc1ccc(S(=O)(=O)N2CCOCC2)cc1C(=O)NCc1ccco1,-1.0%,0.05,i
CCOC(=O)CC1C(=O)NCCN1Cc1cccc(OC)c1 (stereo unspecified),1.6%,0.27,i
O=C(NNC(=S)Nc1cccc2ccccc12)c1cccc(Br)c1,-2.2%,·,i
O=C(c1cccs1)N1CCC(N2CCN(c3ccccc3)CC2)CC1,4.7%,0.01,i
COc1ccccc1OCc1nc2ccccc2[nH]1,2.9%,-0.34,i
Cn1c(=O)[nH]c(=O)c2c1nc(N1CCN(c3ccccc3)CC1)n2CCSc1ncccn1,-5.0%,1.1,i
CN1CCN(C(=O)c2ccc(COc3ccc(Cl)cc3Cl)cc2)CC1,5.8%,-1.3,i
COc1ccc(C2C(C(C)=O)=C(C)Nc3ncnn32)cc1OC (stereo unspecified),-1.8%,-2.6,i
Cn1c(=O)c2c(nc(CN3CCC(C(N)=O)CC3)n2CCc2ccccc2)n(C)c1=O,-6.7%,1.3,i

# Screening data as filed in PubChem BioAssay.

# Only part of the results is shown (hit frequency here may not be typical).
